ALR H2O2 inh – blocks human ALR sulfhydryl oxidase activity | P55789 | inhibition, % (concentration not given with the values) | purified ALR, DTT oxidation, H2O2 HRP-luminol luminescence | hit rate 3.8% among 290,000;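 active = mean and each replicate at 75% or more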;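 note: stock transfer was 7.5 nL into about 7.5 µL; 0% = neutral wells and 100% = wells with inactivated enzyme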
Target sequence (P55789 whole entry, looked up): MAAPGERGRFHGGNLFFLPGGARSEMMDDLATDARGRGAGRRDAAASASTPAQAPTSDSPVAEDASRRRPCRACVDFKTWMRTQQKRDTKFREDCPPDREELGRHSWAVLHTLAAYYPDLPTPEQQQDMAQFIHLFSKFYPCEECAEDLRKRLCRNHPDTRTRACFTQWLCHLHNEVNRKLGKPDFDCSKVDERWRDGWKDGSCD
B2AR ag – agonists of human beta-2 adrenergic receptor inducing internalization; response, % (concentration not given with the values); P07550; AID 504454; hit rate 0.43% among 340,000; Am2.2-beta2AR cells, FAP receptor internalization, flow cytometry; reference of the scale not given here;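 active = response above a set limit, near 3 SD of response in nonfluorescent compounds, cut at about 42% in these data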;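 note: stock transfer was 100 nL into about 11 µL; a reference agonist was the positive control; negative values mostly stem from fluorescent compounds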
FGF22 binding – binders of recombinant human FGF22 by thermal shift. SYPRO orange fluorescence; percent of sucrose octasulfate shift, DMSO zero. AID 651658. hit rate 1.5% among 340,000. calls only at 9.99 µM. Q9HCT0;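 active = melting point raised past a set limit in the mean and every replicate; three in four hits are not shown here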
Target sequence (Q9HCT0 whole entry, looked up): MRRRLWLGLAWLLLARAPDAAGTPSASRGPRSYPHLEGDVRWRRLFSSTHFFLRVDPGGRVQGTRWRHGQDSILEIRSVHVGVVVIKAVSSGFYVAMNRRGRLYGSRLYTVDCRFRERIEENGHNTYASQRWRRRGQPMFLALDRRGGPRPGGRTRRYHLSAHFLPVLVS
UCH37 inh – inhibitors of human deubiquitinating enzyme UCH37; inhibition, % (concentration not given with the values); AID 588478; hit rate 0.33% among 330,000; Q9Y5K5; purified proteasome/UCH37, Ub-AMC cleavage fluorescence;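 active = mean of two replicates above 20%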;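 note: 0% = compound-free wells with enzyme and 100% = wells lacking proteasome; stock transfer was 100 nL into about 20 µL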
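Schedule: 30 min plus 25 min, room temperature / Material: human UCH37 within purified proteasomes / Technique: AMC fluorescence intensity at 355/460 nm / Buffer or medium: pH 7.4 Tris-HCl (50 mM) with ovalbumin, ATP-MgCl2, DTT / Controls: wells without proteasome as full block, compound-free enzyme plus substrate as uninhibited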
rRNA inh HTS – inhibits bacterial ribosomal RNA function over humanized ribosomes | GFP signal change (wild-type ribosome), % (concentration not given with the values) | E. coli WT GFP vs humanized-ribosome RFP mutants, fluorescence, 24 h; stronger effect = lower value; DMSO median 0, no signal -100 | hit rate 1.6% among 350,000;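 active = significant combined selectivity score with lowered wild-type GFP, culture density cut under 30%, mutant RFP and density less affected; inactive = any of these conditions unmet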; note: one replicate is shown; some compounds called inactive have numbers as strong as hits
E coli growth – blocks Escherichia coli growth | OD600 absorbance (test concentration not listed) | hit rate 0.21% among 330,000 | OD600, 23 h; stronger effect = lower value | AID 1053175;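 active = OD600 absorbance below the run mean of sample wells minus 3.6 SD, in any replicate, cut at about 0.56 in these data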;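 note: stock transfer was 300 nL into about 60 µL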
HNF4A DNA FP – change in binding of human HNF4 alpha to DNA; hit rate 0.3% among 360,000; HNF4a-FITC DNA binding, fluorescence polarization, 1 h; activity change, % at 10 µM; P41235; AID 1224865; in the data active = activity change above about 30%, passing the limit was not always enough;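 note: controls were the assay level and a saturating level of protein; the project sought stronger binding though the title names inhibitors; some compounds called inactive have numbers as strong as hits; positive values seem to mean higher polarization but the record does not say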
Target sequence (P41235 whole entry, looked up): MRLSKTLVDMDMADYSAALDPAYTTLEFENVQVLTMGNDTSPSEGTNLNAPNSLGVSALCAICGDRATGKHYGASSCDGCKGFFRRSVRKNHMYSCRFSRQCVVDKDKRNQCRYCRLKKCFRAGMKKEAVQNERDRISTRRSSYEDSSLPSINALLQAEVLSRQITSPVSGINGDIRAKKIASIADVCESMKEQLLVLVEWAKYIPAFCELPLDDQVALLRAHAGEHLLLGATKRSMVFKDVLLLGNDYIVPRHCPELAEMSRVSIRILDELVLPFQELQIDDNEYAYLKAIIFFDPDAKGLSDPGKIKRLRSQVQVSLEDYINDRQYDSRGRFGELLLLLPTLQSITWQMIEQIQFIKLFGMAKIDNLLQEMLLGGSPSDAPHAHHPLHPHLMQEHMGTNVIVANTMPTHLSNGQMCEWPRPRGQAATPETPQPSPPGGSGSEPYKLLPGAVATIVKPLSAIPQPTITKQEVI
rRNA inh HTS OD600 – further read-out of rRNA inh HTS, marked with its call; OD600 change, %; measured here: OD600 growth;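 optical density of the mix in the first replicate; 0 = DMSO median and -100 = no signal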
rRNA inh HTS RFP – also measured in rRNA inh HTS; calls as there; RFP signal change, %; measured here: RFP humanized mutant strains;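 first replicate; 0 = DMSO median and -100 = no signal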
An asterisk follows results filed as active; i = inactive; · = no result given.

mol,ALR H2O2 inh,B2AR ag,FGF22 binding,UCH37 inh,rRNA inh HTS,rRNA inh HTS OD600,rRNA inh HTS RFP,E coli growth,HNF4A DNA FP
CC(C)CCn1c(=O)c2ccccc2n2c(CCC(=O)NCC3CCCO3)nnc12 (stereo unspecified),0,-14,i,1.1,7,6,-2.6,0.68,-2.6
CCC(C)[C@H](NC(=O)NCc1ccco1)C(=O)OC (stereo partly specified),1,4,i,5.8,20,13,3.9,0.68,1.7
O=C(NCC(=O)N1CCN(S(=O)(=O)/C=C/c2ccccc2)CC1)c1ccc(Cl)cc1,-2,-13,i,1.4,2,4,-2.2,0.69,-3.4
CN1CCc2c(sc3c2c(=O)n(-c2ccccc2)c2nnc(SCc4ccc(Cl)cc4)n32)C1,·,9,·,3.3,·,·,·,0.74,-1.1
CCCN(CC(=O)Nc1ccccc1C)C(=O)CCl,14,-2,i,3.9,22,7,3.1,0.67,27
COc1ccc(OCC(=O)NNc2c3ccccc3nc3ccccc23)cc1,100*,9,·,1.7,·,·,·,0.63,1.2
Cc1c(S(=O)(=O)N2CCCCC2)c(=O)n(C)c(=O)n1C,-1,-10,i,2.2,6,2,-1.4,0.68,5.0
O=c1c(-c2c(O)cc(O)c3c2O[C@H](c2ccc(O)cc2)CC3)c(-c2ccc(O)cc2)oc2cc(O)cc(O)c12,45,4,·,0.6,·,·,·,·,1.0
CCCOc1ccc(N2C(=O)CC(N(CCc3ccc(S(N)(=O)=O)cc3)C(C)=O)C2=O)cc1 (stereo unspecified),-4,1,·,0.7,·,·,·,0.73,-0.1
Cc1ccsc1C(=O)OCC(=O)N1CC(=O)Nc2ccccc21,-2,0,·,4.2,·,·,·,0.7,-0.6
CC(Sc1nnc(C2CC2)n1Cc1ccccc1)C(=O)N1CCNC1=O (stereo unspecified),2,-10,i,0.4,·,·,·,0.7,-1.5
O=C(c1ccccc1)C(O)C(c1ccccc1)N1CCOCC1 (stereo unspecified),26,2,i,-0.9,3,10,-0.4,0.69,2.5
CCOC=C1SC(=S)N(c2ccccc2OC)C1=O,·,·,i,·,-1,11,37,·,8.9
COc1ccc(CN(C)S(=O)(=O)c2nnc(NC(=O)c3cccc(C)c3)s2)cc1OC,4,-7,i,2.2,-12,-9,0.7,0.68,2.7
CCn1c(C)[n+](CC(O)COCC2CC=CCC2)c2ccccc21 (stereo unspecified),1,12,·,3.7,·,·,·,0.7,-0.9
COc1cc(/C=C2/C(=O)c3cccc([N+](=O)[O-])c3C2=O)c(Br)cc1O,·,24,·,8.4,·,·,·,0.67,-8.1
CC(CC(=O)Nc1ccc(F)c([N+](=O)[O-])c1)c1ccccc1 (stereo unspecified),-26,-18,i,1.0,8,3,-0.9,0.72,4.9
COc1ccccc1NC(=S)NCc1ccc2c(c1)cc(C)n2C,-8,1,i,3.0,-17,0,46,0.68,-3.0
O=C(Oc1cccc(Cl)c1)N1CCOCC1,-4,-2,i,0.6,-3,5,-2.1,0.65,-0.2
CCc1ccc2nc(N(CCCN(C)C)C(=O)c3ccc(S(=O)(=O)N4CCCC4)cc3)sc2c1,-13,11,·,1.4,-11,0,8.3,0.64,8.7
COc1ccc(/C=C2/SC(=O)N(CCC(=O)Nc3ccc(S(=O)(=O)Nc4nccs4)cc3)C2=O)cc1,0,5,·,·,·,·,·,·,-3.0
O=C(c1cc(-c2ccccc2Cl)on1)N1CCCC1,-3,-4,i,-0.1,-9,-23,-6.0,0.62,-1.1
CCSc1nc2c(c(=O)[nH]c(=O)n2C)n1Cc1ccc(Cl)cc1,-2,-4,·,4.9,·,·,·,0.76,-0.3
CCn1c(=O)c(=O)[nH]c2c(=O)oc3ccc(S(=O)(=O)Nc4ccc(OC)cc4)cc3c21,·,12,i,-19,4,8,-2.7,0.65,-1.1
CC(=O)N1CCc2cc(S(=O)(=O)NCc3ccc(C)cc3)ccc21,-1,-2,i,2.2,0,0,1.2,0.67,-1.7
CCOc1ccc(OCC(=O)Nc2ccc(S(N)(=O)=O)cc2)cc1,·,10,·,6.4,8,13,-1.4,0.7,-0.9
O=C(COc1ccc([N+](=O)[O-])cc1Cl)NCCc1ccccc1,-6,-3,·,1.4,·,·,·,0.71,0.1
Cc1ccc(NS(=O)(=O)c2ccc(C(C)(C)C)cc2)cn1,-1,-4,i,-2.1,-1,5,-1.3,0.7,0.9
CCCN1C(=O)/C(=C/c2ccc(OCC(=O)OCC)cc2)NC1=S,·,14,i,7.7,15,-3,-11,0.71,1.0
CCCOc1ccc(C(=O)CCC(=O)OCC(=O)N(C)c2c(N)n(Cc3ccccc3)c(=O)[nH]c2=O)cc1,-9,-15,i,2.7,20,11,0.7,0.69,0.0
CCCNC(=O)COc1ccccc1[N+](=O)[O-],-3,11,·,4.1,·,·,·,0.63,0.5
CCOc1ccc(S(=O)(=O)Nc2nc3ccc(OC)cc3s2)cc1,1,4,·,-0.3,·,·,·,0.8,0.2
COC(=O)N1[C@H](C)C=C[C@]1(Cc1ccccc1)C(=O)OC,-1,-1,i,4.2,6,12,-3.5,·,18
COc1ccc(-c2coc3cc(O[C@@H]4O[C@H](CO)[C@@H](O)[C@H](O)[C@H]4O)ccc3c2=O)cc1,-5,0,i,2.3,2,1,-3.1,·,0.9
N#C/C(=C\c1ccccc1C(=O)O)c1nc2ccccc2[nH]1,·,-13,i,-6.4,2,10,5.3,0.69,-0.1
C=C(C)C1CC=C(C)/C(=N/NC(=O)C2CC2c2ccccc2)C1 (stereo unspecified),-10,-12,i,·,5,0,1.3,·,-3.9
CN1CCN(CC(=O)Nc2ccc(OCc3ccccc3)cc2)CC1,-24,·,·,-2.1,·,·,·,0.73,·
CCOc1ccc2nc(NC(=O)/C=C/c3ccc4c(c3)OCO4)sc2c1,7,28,i,-3.7,13,12,-0.3,0.68,0.3
O=C(Nc1cccnc1)c1ccc(N2CCCC2)c([N+](=O)[O-])c1,0,-9,i,6.5,-39,-57,-1.2,0.64,1.9
Cc1cc(OCC(=O)Nc2sc3c(c2C#N)CC(C)(C)NC3(C)C)c(C(C)C)cc1Cl,-8,28,i,2.1,5,8,5.9,0.76,4.3
CCOc1ccc(NC(=O)c2cc(S(=O)(=O)N3CCCCC3)c[nH]2)cc1,-3,7,i,10,7,14,3.2,0.73,4.2
CCNC(=O)CNC(=O)c1nn(Cc2ccccc2)c(=O)c2ccccc12,-4,-1,i,1.1,5,9,3.9,0.71,-2.5
Cc1cccc(C)c1NC(=O)CNC(=O)Cn1nc(C)c(C)c(C#N)c1=O,-1,1,i,0.4,6,9,0.6,0.69,-0.8
O=C(CN1CCCCCC1)Nc1cccc(Br)c1,-28,-4,·,1.8,·,·,·,0.68,-0.9
Cc1cc(C)nc(SC2CC(=O)N(c3ccc(Cl)cc3)C2=O)n1 (stereo unspecified),6,-13,i,·,-1,1,0.4,·,-2.1
O[C@H]1C[C@H](c2ccccc2)N(Cc2cccs2)C[C@@H]1n1cc(C2CC2)nn1,·,·,i,·,-54,-80,-15,·,-2.1
CC(C)CN(C(=O)COC(=O)Cc1ccc(Cl)cc1)c1c(N)n(Cc2ccccc2)c(=O)[nH]c1=O,-16,2,i,2.3,5,8,-1.4,0.72,-1.0
CCOc1ccc(NC(=O)N2CCc3ccccc3C2)cc1,-6,6,i,2.4,-5,3,-3.5,0.71,6.8
CCn1c(=O)n(-c2ccc(Cl)cc2)c(=O)c2c3c(sc21)COC(C)(C)C3,1,-1,·,2.3,·,·,·,0.67,4.9
O=C(C1CCCO1)N1CCN(C(=S)Nc2ccc(F)c(Cl)c2)CC1 (stereo unspecified),5,-1,i,-0.5,-29*,-20*,2.1*,0.71,-1.7
Nc1c(CNCc2nnn(Cc3ccccc3)c2N)nnn1Cc1ccccc1,·,·,i,·,2,16,-0.8,·,-1.3
CC(C)CC(NC(=O)OC(C)(C)C)C(=O)O (stereo unspecified),-3,6,i,4.9,5,0,15,0.71,0.8

A draw from above in order of formula weight, falling:
mol,ALR H2O2 inh,B2AR ag,FGF22 binding,UCH37 inh,rRNA inh HTS,rRNA inh HTS OD600,rRNA inh HTS RFP,E coli growth,HNF4A DNA FP
COc1ccc(/C=C2/SC(=O)N(CCC(=O)Nc3ccc(S(=O)(=O)Nc4nccs4)cc3)C2=O)cc1,0,5,·,·,·,·,·,·,-3.0
CC(C)CN(C(=O)COC(=O)Cc1ccc(Cl)cc1)c1c(N)n(Cc2ccccc2)c(=O)[nH]c1=O,-16,2,i,2.3,5,8,-1.4,0.72,-1.0
CN1CCc2c(sc3c2c(=O)n(-c2ccccc2)c2nnc(SCc4ccc(Cl)cc4)n32)C1,·,9,·,3.3,·,·,·,0.74,-1.1
CCCOc1ccc(N2C(=O)CC(N(CCc3ccc(S(N)(=O)=O)cc3)C(C)=O)C2=O)cc1 (stereo unspecified),-4,1,·,0.7,·,·,·,0.73,-0.1
O[C@H]1C[C@H](c2ccccc2)N(Cc2cccs2)C[C@@H]1n1cc(C2CC2)nn1,·,·,i,·,-54,-80,-15,·,-2.1
O=C(C1CCCO1)N1CCN(C(=S)Nc2ccc(F)c(Cl)c2)CC1 (stereo unspecified),5,-1,i,-0.5,-29*,-20*,2.1*,0.71,-1.7
Cc1cccc(C)c1NC(=O)CNC(=O)Cn1nc(C)c(C)c(C#N)c1=O,-1,1,i,0.4,6,9,0.6,0.69,-0.8
CCOc1ccc(OCC(=O)Nc2ccc(S(N)(=O)=O)cc2)cc1,·,10,·,6.4,8,13,-1.4,0.7,-0.9
Cc1cc(C)nc(SC2CC(=O)N(c3ccc(Cl)cc3)C2=O)n1 (stereo unspecified),6,-13,i,·,-1,1,0.4,·,-2.1
O=C(c1ccccc1)C(O)C(c1ccccc1)N1CCOCC1 (stereo unspecified),26,2,i,-0.9,3,10,-0.4,0.69,2.5
N#C/C(=C\c1ccccc1C(=O)O)c1nc2ccccc2[nH]1,·,-13,i,-6.4,2,10,5.3,0.69,-0.1
CCCNC(=O)COc1ccccc1[N+](=O)[O-],-3,11,·,4.1,·,·,·,0.63,0.5

Compound activity deposited in PubChem BioAssay by several laboratories.

These rows are one share of the data (hit frequency here may not be typical).
